Mtb MbtI inh – inhibitors of Mycobacterium tuberculosis siderophore enzyme MbtI; purified MbtI enzyme, fluorescence intensity read-out; 100,000 compounds, 0.89% hits; inhibition, %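 (about 17 µg/mL by stock and volumes)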;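 active = above 50% in both replicates, above 80% if mildly self-fluorescent; inactive = the rest, strongly fluorescent compounds included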;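 also: 0% = mean of negative and 100% = mean of positive controls; one replicate is shown; some compounds called inactive have numbers as strong as hits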
Target sequence (P9WFX0 whole entry, looked up): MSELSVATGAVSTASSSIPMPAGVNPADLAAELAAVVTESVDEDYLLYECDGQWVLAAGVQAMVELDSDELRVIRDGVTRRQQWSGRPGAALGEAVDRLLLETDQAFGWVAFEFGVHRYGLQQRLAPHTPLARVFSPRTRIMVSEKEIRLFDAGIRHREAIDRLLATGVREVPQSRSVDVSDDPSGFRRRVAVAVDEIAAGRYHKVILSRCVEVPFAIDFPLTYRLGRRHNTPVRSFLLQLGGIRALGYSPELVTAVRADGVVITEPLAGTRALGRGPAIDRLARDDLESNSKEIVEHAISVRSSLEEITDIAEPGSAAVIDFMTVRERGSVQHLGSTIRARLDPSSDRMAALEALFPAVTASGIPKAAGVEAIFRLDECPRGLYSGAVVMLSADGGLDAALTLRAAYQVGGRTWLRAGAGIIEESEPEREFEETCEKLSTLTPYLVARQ
Mtb MenB inh – blocks the Mycobacterium tuberculosis MenB enzyme; MenB enzyme assay, absorbance read-out; some hits fall short of the stated cut; 100,000 compounds, 0.43% hits; inhibition, %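 (about 12 µg/mL by stock and volumes)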;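 active = mean of two replicates above 30%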;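 also: 0% = no compound and 100% = wells with inactive enzyme; the first replicate is given; strong numbers were not always called active; inactives centre near -10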
Target sequence (P9WNP5 whole entry, looked up): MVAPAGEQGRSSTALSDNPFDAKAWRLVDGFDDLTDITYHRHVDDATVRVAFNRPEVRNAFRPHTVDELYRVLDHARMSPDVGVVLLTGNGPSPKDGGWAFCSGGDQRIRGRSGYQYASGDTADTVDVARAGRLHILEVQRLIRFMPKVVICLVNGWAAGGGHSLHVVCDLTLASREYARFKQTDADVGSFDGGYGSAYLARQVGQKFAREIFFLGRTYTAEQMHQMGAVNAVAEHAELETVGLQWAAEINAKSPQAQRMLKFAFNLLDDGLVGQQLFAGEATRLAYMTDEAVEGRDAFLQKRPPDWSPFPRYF
PV pol inh – poliovirus RNA polymerase inhibition | 150,000 compounds, 0.66% hits | % elongation, % (compound at 16.7 µg/mL) | poliovirus polymerase elongation, fluorescence polarization; stronger effect = lower value | P03300; in the data active = % elongation below about 90%; also: some results filed as inactive read as strong as hits
PV pol inh intensity – also measured in PV pol inh; calls as there; % elongation; measured here: total intensity read-out; formula for this scale not given here;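 total fluorescence in place of polarization; lower means less elongation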
Active calls of the source: *; · = not tested or not shown. Rows are unselected, and some 1.9% of all compounds hit somewhere here.

SMILES	Mtb MbtI inh	Mtb MenB inh	PV pol inh	PV pol inh intensity
CN(C(=O)CCCOc1ccc(Cl)cc1Cl)C1CCCCC1	·	-21	107	113
O=C(N=C=S)c1ccc(Cl)cc1	0	-47	97	104
Cc1coc2cc3oc(=O)c(CCC(=O)N4CCCC4)c(C)c3cc12	49	23	100	102
CN(C(=O)c1cc2c(Cl)nc3ccccc3c2s1)C1CCCCC1	1	-5	105	106
O=C(COC(=O)c1ccc(Br)o1)Nc1c(Cl)cccc1Cl	-5	·	103	107
CN(C)CCCC1(O)c2ccccc2CCc2ccccc21	-1	-22	101	100
CCCn1c(CCC(=O)NCc2ccc(Cl)cc2)nc2cccnc21	6	-32	100	102
CC(C)(C)C1COC(CC2=NC(C(C)(C)C)CO2)=N1 (stereo not given)	-2	-6	100	101
COC(=O)c1ccccc1NC(=O)Nc1ncn(Cc2cccc(C(F)(F)F)c2)n1	·	-6	102	102
Cc1ccc(/C=c2\s/c(=C(/C#N)C(=O)N3CCCC3)n(Cc3ccco3)c2=O)s1	24	-86	70	176
Cc1csc2sc(-c3ccnc(SCC(=O)c4ccccc4)n3)c(C)c12	-5	-7	108	110
O=C(CSc1nc2ccccc2o1)c1cc2ccccc2o1	25	9	108	105
O=C(CSc1n[nH]c(=O)n1-c1cccnc1)c1ccc(N2CCOCC2)cc1	3	10	101	95
Cc1cc(C)n2nc(S(=O)(=O)NC3CCCCC3)nc2n1	·	-5	104	109
Cc1ccc(N(Cc2ccccc2F)S(C)(=O)=O)c(C)c1	0	-35	102	99
CCOC(=O)CSc1nnc(CNc2ccc(C)cc2C)n1-c1ccccc1	-1	-23	103	101
COC(=O)CSc1nc(C)cc(N2CCOCC2)n1	4	-42	104	106
CC(C)Cn1c(O)c(NC(=O)N=N)c2ccccc21	15	-9	102	108
CCOc1nc(NC(C)C)nc(NC(C)C)n1	-18	-7	104	101
CCCCn1c(N)c(N(C)C(=O)c2ccc(NC(=O)CSc3nnnn3C)cc2)c(=O)[nH]c1=O	-10	-5	103	108
CN(C)S(=O)(=O)c1cccc(-c2nnc3n2N=C(c2ccccc2)C(CC(=O)O)S3)c1 (stereo not given)	99*	0	75*	79*
CCN(CC)C(=O)CSc1cc(=O)n(CC)c2ccccc12	22	2	104	99
CCCC(C)C(=O)Nc1nnc(C(F)(F)F)s1 (stereo not given)	13	-17	102	102
NS(=O)(=O)c1ccc(CNC(=O)c2ccccn2)cc1	-15	-25	99	96
Cc1sc2nc(CN3CCOCC3)nc(NC(C)C)c2c1C	-3	-7	94	89

Part of the list above in another layout:
Results follow in this order: Mtb MbtI inh, Mtb MenB inh, PV pol inh, PV pol inh intensity
COC(=O)c1ccccc1NC(=O)Nc1ncn(Cc2cccc(C(F)(F)F)c2)n1
→ ·, -6, 102, 102
Cc1ccc(/C=c2\s/c(=C(/C#N)C(=O)N3CCCC3)n(Cc3ccco3)c2=O)s1
→ 24, -86, 70, 176
Cc1csc2sc(-c3ccnc(SCC(=O)c4ccccc4)n3)c(C)c12
→ -5, -7, 108, 110

(next part)
SMILES	Mtb MbtI inh	Mtb MenB inh	PV pol inh	PV pol inh intensity
COc1ccc(Nc2cc(C)nc3ccc(OC)cc23)cc1	-5	-8	100	96
CN1CCC(N(C)CC(O)COCc2ccccc2F)CC1 (stereo not given)	-8	·	103	104
C#CCn1c(=NC(C)=O)sc2cc(NC(C)=O)ccc21	23	-2	102	101
O=C(O)Cn1c(=O)oc2cc(Cl)ccc21	1	-6	99	101
CC(C)(C)c1ccc(S(=O)(=O)CCSc2nc3c(cc2C#N)CCCC3)cc1	-4	5	99	99
CC(C)(C)c1csc(-c2ccc(O)cc2)n1	100	15	98	98
C[C@@H]1NC(=O)[C@@H]2C[C@@H](OC(=O)c3ccccc3)CN2C1=O	·	-43	102	102
CC(C)c1ccc2occ(CC(=O)Nc3nnc(C(C)C)s3)c2c1	-1	-35	102	101
CC(=O)NC1=NC(=O)C(C)S1 (stereo not given)	-8	·	99	99
CC1COc2c(N3CCN(C)CC3)c(F)cc3c(=O)c(C(=O)N4CCN(S(=O)(=O)c5ccccc5)CC4)cn1c23 (stereo not given)	-25	-23	101	100
C[C@H](c1ccccc1)N1C[C@@H](CO)OC1=O	·	-5	104	109
CC(C)(C)CC(=O)Nc1nc2ccc(S(C)(=O)=O)cc2s1	·	5	101	101
CCOC(=O)c1[nH]c(C)c(CCC(=O)O)c1C	3	3	100	101
Cc1cc(Cl)c(CC(=O)O)c(Cl)n1	-6	-25	106	106
Nc1cc(C(F)(F)F)ccc1-n1ccnc1	8	-5	100	102
Cc1cc(OC(=O)C2CC(=O)N(c3ccc(F)cc3)C2)ccc1N1C(=O)CCC1=O (stereo not given)	-9	-15	101	101
N#Cc1c(-c2ccco2)cc(-c2cccs2)nc1OCc1ccc(F)cc1	-153	1	109	114
CCN(CC)C(=O)CSc1nc2cc3c(cc2c(=O)n1Cc1ccc(OC)cc1)OCO3	10	-3	104	99
Oc1ccc(/C=N/N=C/C2=C(N3CCOCC3)C(=C\c3ccccc3)/CC2)c(O)c1	14	-48	110	209
CC1CC(C)CN(C(=O)COC(=O)/C=C/c2ccco2)C1 (stereo not given)	-3	·	103	107
CC(C(=O)OCC(=O)c1ccc[nH]1)N1C(=O)c2ccccc2C1=O (stereo not given)	-22	-4	104	111
O=C1CC2(CCCC2)C(=O)N1c1ccc(OC(F)(F)F)cc1	-1	-15	103	107
O=C(OC[C@H]1O[C@H](OC(=O)c2cc(O)c(O)c(OC(=O)c3cc(O)c(O)c(O)c3)c2)[C@H](OC(=O)c2cc(O)c(O)c(OC(=O)c3cc(O)c(O)c(O)c3)c2)[C@@H](OC(=O)c2cc(O)c(O)c(OC(=O)c3cc(O)c(O)c(O)c3)c2)[C@@H]1OC(=O)c1cc(O)c(O)c(OC(=O)c2cc(O)c(O)c(O)c2)c1)c1cc(O)c(O)c(OC(=O)c2cc(O)c(O)c(O)c2)c1	-8	1	98	101
Cc1ccccc1NC(=O)C(C)(C)c1ccccc1	-3	·	102	106
CCOC(=S)NC(C)(C)C	-5	-22	101	95

One compound at a time, as listed above. Values in the order: Mtb MbtI inh, Mtb MenB inh, PV pol inh, PV pol inh intensity
CCN(CC)C(=O)CSc1cc(=O)n(CC)c2ccccc12 reads 22, 2, 104, 99
CN1CCC(N(C)CC(O)COCc2ccccc2F)CC1 (stereo not given) reads -8, ·, 103, 104
C[C@@H]1NC(=O)[C@@H]2C[C@@H](OC(=O)c3ccccc3)CN2C1=O reads ·, -43, 102, 102
CN(C(=O)CCCOc1ccc(Cl)cc1Cl)C1CCCCC1 reads ·, -21, 107, 113
CN(C)CCCC1(O)c2ccccc2CCc2ccccc21 reads -1, -22, 101, 100

Following part.
SMILES	Mtb MbtI inh	Mtb MenB inh	PV pol inh	PV pol inh intensity
Cc1nn(CCCC(=O)NCc2ccccc2)c(=O)c2nccn12	-3	8	101	102
CC(Oc1ccc(F)cc1)C(=O)NN (stereo not given)	-1	-13	102	107
Cc1ccc(Nc2nc(Nc3ccc(C)cc3)nc(-n3sc(=S)nc3C)n2)cc1	8	-22	101	102
COC(=O)C(C)Oc1ccc(C(=O)O)cc1OC (stereo not given)	-14	-14	103	101
N=c1c[n+](C2CCCCC2)[n-]o1	·	-19	104	105
COCCNC(=O)Cn1ncn2nc(-c3ccccc3)cc2c1=O	15	-8	100	100
CC(=O)Nc1ccc(S(=O)(=O)N(C)C)cc1	6	1	99	99
COc1ccc(CCNC(=O)C(Sc2ccc(Cl)cc2)c2ccccc2)cc1OC (stereo not given)	30	-8	102	108
CCSc1sccc1C1C(C#N)=C(N)N(c2cccnc2)C2=C1C(=O)CCC2 (stereo not given)	8	-15	101	104
COc1ccc(-n2cc(C#N)c(=O)n(Cc3ccccc3)c2=O)cc1	5	-13	103	99
COc1ccc(CCCc2nnc(SCC(=O)NN)o2)c(C)c1	-5	-31	105	99
CCOC(=O)c1cc(NC(=O)c2ccccc2)c(=O)oc1C(F)(F)F	0	·	102	106
[S-]c1n[n+]2cccnc2s1	27	-103	98	90
NS(=O)(=O)c1ccc(NC(=O)NCC2CCCC(CNC(=O)Nc3ccc(S(N)(=O)=O)cc3)C2)cc1 (stereo not given)	1	-29	101	99
Cc1ccc2c(CC(=O)OCc3nc(N)nc(Nc4ccccc4C)n3)coc2c1	-8	-32	119	120
Clc1ccccc1N1CCN(Cc2ccsc2)CC1	-15	-43	104	101
CN=C(Nc1ccc(OC)cc1)c1ccccc1	2	-29	103	91
CCn1c(SCC2CCCCO2)nnc1-c1cccs1 (stereo not given)	49	-10	102	92
Cc1[nH]n(-c2ccccc2)c(=O)c1C1=c2ccccc2=NC1=O	·	14	95	98
COc1ccc(Cn2c(=O)oc3ccccc32)cc1	-4	5	99	102
CC(C)NC(=O)CCc1nc2ccccc2c(=O)[nH]1	-2	-24	101	105
Cn1ccnc1C(=O)c1cc(Sc2nnnn2-c2ccccc2)nc2ccccc12	11	-4	97	97
Cc1ccc(C(=O)OCC(=O)NC2CC2)cc1S(=O)(=O)N1CCOCC1	-9	-10	113	118
CCOc1ccc2nc(SCC(=O)NCC3CCCO3)c(C#N)cc2c1 (stereo not given)	3	-15	101	97
NC(=NCCc1ccccc1)Nc1nc2ccccc2[nH]1	-8	2	100	104

(more compounds)
SMILES	Mtb MbtI inh	Mtb MenB inh	PV pol inh	PV pol inh intensity
COC(=O)c1cc2ccccc2nc1-c1ccc(F)cc1	41	·	102	104
O=C(NCCc1ccc(Cl)cc1)c1ccc(CS(=O)c2ccc(Cl)cc2)o1 (stereo not given)	2	-18	102	105
CCc1ccc(Nc2nnc(SCC(=O)NC3(C#N)CCCC3)s2)cc1	7	-9	102	107
CC(C)Sc1nnnn1-c1ccccc1	-8	-26	103	99
O=C(Cn1nnc(-c2ccccc2)n1)N1CCc2ccccc21	-6	-21	103	107
CCOC(=O)CSc1nc2ccc(Br)cc2c2nc3ccccc3n12	-10	5	104	103
O=C1c2c(-c3ccc(Cl)cc3)csc2NC2CCCN12 (stereo not given)	2	-2	98	102
CCCCC1CCC(C(=O)OCC(=O)c2ccc(Br)cc2)CC1 (stereo not given)	·	-19	98	89
O=C1CC2Sc3ccccc3N=C2N1Cc1ccccn1 (stereo not given)	-6	6	103	105
CN1CCC(NC(=O)C2CCCO2)CC1 (stereo not given)	-10	2	99	102
Cc1c(NC(=O)/C=C/c2ccc(Cl)cc2Cl)c(=O)n(-c2ccccc2)n1C	·	-14	101	100
COc1ccc(Cl)cc1N=Cc1ccc2ncccc2c1	-2	·	103	105
O=C(c1cc(NS(=O)(=O)c2cccs2)cc(NS(=O)(=O)c2cccs2)c1)N1CCCCC1	2	-9	109	100
C=CCNC(=O)c1cc(-c2cccs2)nc2ccccc12	-7	·	99	104
COc1ccc(Cl)cc1-c1nc(SCC(=O)N2C(C)CCCC2C)n[nH]1 (stereo not given)	-2	-20	102	104
O=C(CNC(=O)c1ccc(C(F)(F)F)cc1)NC1CC1	-3	-21	109	124
C/C(=N\NC(=O)CNc1cccc(C(F)(F)F)c1)C1CC1	-7	-8	101	107
CCc1ccc(NC(=O)c2cccc(NC3=NC4CS(=O)(=O)CC4S3)c2)cc1 (stereo not given)	-1	-4	101	101
O=C(CSc1nnc(Cc2ccccc2)n1Cc1ccccc1)N1CCCC1	-13	-12	100	100
COC(=O)Cc1cc(=O)[nH]c(SCC2CCCCO2)n1 (stereo not given)	2	-32	103	104
O=C(NCc1ccccc1)N(Cc1cccnc1)Cc1cc2cc3c(cc2[nH]c1=O)OCCO3	89	3	103	99
CC(C)C(NS(=O)(=O)c1ccc2c(c1)CCCC(=O)N2)C(=O)N1CCN(c2ccccc2)CC1 (stereo not given)	-16	-16	101	104
CC(CC(=O)O)CC(=O)N1CC(C)OC(C)C1 (stereo not given)	-2	0	102	102
c1ccc(C2=Nc3ccccc3SC2c2nc3ccccc3[nH]2)cc1 (stereo not given)	18	-10	104	101
O=C(NCC1CCCCC1)C1CCCN1C(=O)NC1CCCCC1 (stereo not given)	-7	-2	102	102

Following part:
SMILES	Mtb MbtI inh	Mtb MenB inh	PV pol inh	PV pol inh intensity
CS(=O)(=O)N1CCCc2cc(C(=O)N3CCN(Cc4ccccc4)CC3)ccc21	-9	-10	104	102
O=C(O)c1ccccc1SCc1cc(=O)n2nc(-c3ccco3)sc2n1	13	-18	100	103
Cc1ccc(CNC(=O)c2cc(=O)[nH]c3ccccc23)n1C	8	-31	104	112
Nc1ccc2nc(-c3ccccc3-c3nc4ccc(N)cc4[nH]3)[nH]c2c1	5	-15	103	101
O=c1c2c3c(sc2nc2sc(-c4ccncc4)nn12)CCCC3	10	-22	98	101
O=c1cc(-c2ccccc2)ss1	53*	-14	82*	77*
Cc1noc(C)c1CSc1nc2cc(C(=O)O)ccc2c(=O)n1Cc1ccccc1	5	-11	·	·
N#Cc1ccc(OCC(F)(F)F)c(C#N)c1OCC(F)(F)F	5	-11	102	102
CSc1ccccc1C(=O)OCC(=O)Nc1ccc(S(N)(=O)=O)cc1	-28	-9	101	104
CC12CCC(=O)N1C(C(=O)OCc1cc(=O)n3ccsc3n1)CS2 (stereo not given)	31	12	98	105
O=C(OCc1ccc(F)cc1)C1=NN(c2ccccc2)C(=O)CC1	-8	3	97	102
CCc1nn(CC(=O)NC2CCCC(C)C2C)c(=O)c2cc3sc(C)cc3n12 (stereo not given)	-4	5	99	104
Cc1ccc(-c2[nH]c3ccccc3c2SCCNC(=O)c2ccncc2)cc1	-18	-23	104	106

Screening data (PubChem)
